Screening results (PubChem)
PKD1 inh – inhibitors of human PKD1 kinase; inhibition, %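 (about 10 µM by stock and volumes)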; PKD1 kinase fluorescence polarization assay; Q15139; AID 797; 200,000 compounds, 0.056% hits;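 active = inhibition of 50% or more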;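 also: controls were vehicle for no effect and a reference inhibitor for full effect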
HSV replic up – HSV replication enhancement; HSV replication augmentation in cells, fold increase; maximum fold increase; 220,000 compounds, 0.005% hits; AID 1956;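 active = peak rise of 1.5-fold or more in the series; tested in PC3 cells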;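 also: first round at 10 µM; read as green reporter fluorescence; hits show the peak of a series up to 25 µM; 1 = signal of infected wells without compound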
RGS16-Gao – regulators of human RGS16-Galphao interaction | O15492+P09471 | bead-based flow cytometry RGS16-Galphao binding, fluorescence; actives lie on both sides | binding response (% of control), % at 10 µM | 220,000 compounds, 0.38% hits | AID 1441;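 active = below 25% or above 175%, edge rows of some plates excepted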;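 also: Galphao activated by GDP with aluminum fluoride before binding; 100% = wells without compound and 0% = beads without RGS; some results beyond the cut were filed as inactive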
Target sequence (O15492 whole entry, looked up): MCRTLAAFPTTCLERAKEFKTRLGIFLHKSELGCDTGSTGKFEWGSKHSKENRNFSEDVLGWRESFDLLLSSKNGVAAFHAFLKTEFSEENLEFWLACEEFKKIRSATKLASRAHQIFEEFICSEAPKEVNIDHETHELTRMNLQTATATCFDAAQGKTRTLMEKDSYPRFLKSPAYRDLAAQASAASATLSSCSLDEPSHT
Target sequence (P09471 whole entry, looked up): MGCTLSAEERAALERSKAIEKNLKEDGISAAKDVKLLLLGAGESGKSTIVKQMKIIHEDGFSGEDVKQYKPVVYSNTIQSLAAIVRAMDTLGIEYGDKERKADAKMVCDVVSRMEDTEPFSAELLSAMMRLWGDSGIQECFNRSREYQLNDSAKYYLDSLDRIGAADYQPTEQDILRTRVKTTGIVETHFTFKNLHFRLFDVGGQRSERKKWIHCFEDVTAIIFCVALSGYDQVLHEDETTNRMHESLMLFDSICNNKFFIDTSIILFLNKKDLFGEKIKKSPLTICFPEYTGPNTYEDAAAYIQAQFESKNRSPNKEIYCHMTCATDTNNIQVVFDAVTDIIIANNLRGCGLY
GALR2 ag – agonists of human galanin receptor 2 (GALR2); O43603; GALR2-expressing cells, agonist activation read-out; activation, %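 (tested at 5 µM)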; 140,000 compounds, 0.48% hits;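 active = above mean plus 3 SD of all compounds, about 5% in these data, not always enough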;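 also: 0% = vehicle buffer wells and 100% = reference agonist at full effect; tested in CHO reporter cells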
Target sequence (O43603 whole entry, looked up): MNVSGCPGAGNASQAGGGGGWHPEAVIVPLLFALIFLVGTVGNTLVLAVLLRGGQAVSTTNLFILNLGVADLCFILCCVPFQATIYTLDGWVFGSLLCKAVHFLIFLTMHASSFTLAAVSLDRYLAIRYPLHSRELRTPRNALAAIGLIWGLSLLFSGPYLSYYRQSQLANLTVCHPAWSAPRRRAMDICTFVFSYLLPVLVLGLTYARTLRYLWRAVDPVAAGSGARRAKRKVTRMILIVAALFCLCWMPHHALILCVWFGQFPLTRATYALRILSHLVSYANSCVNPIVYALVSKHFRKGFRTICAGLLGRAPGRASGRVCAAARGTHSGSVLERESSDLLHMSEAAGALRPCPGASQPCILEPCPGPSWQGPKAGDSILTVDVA
Insulin prom inh – TRM-6 insulin promoter activity inhibition; TRM-6 cells (human fetal islet line), insulin promoter-eGFP reporter, imaging; reporter expression induced with tamoxifen; inhibition, % at 2 µM; 130,000 compounds, 0.9% hits;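 active = inhibition above the mean plus 3 SD, with well images judged a real hit on visual review, cut at about 60% in these data, passing the limit was not always enough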
Insulin prom inh cell count – recorded beside Insulin prom inh, whose call it bears; normalized cell count, %; measured here: cell count, toxicity; reference of the scale not given here;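 cells exposed to compound for 48 h; stained nuclei by imaging scaled within each plate; lower means fewer cells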
HSV replic up primary fold – second read-out of HSV replic up, no call of its own (marks repeat the call); fold increase; compound at 10 µM; measured here: primary screen fold increase 10 uM; tested in PC3 cells;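 GFP signal in the first replicate; 1 = infected wells without compound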
Numbers without * were called inactive; & = joins results of further samples. Not all compounds are listed; count on the stated rates, not on these rows.

NC1=NC(c2cccnc2)n2c(nc3ccccc32)N1 (configuration not stated) was read as HSV replic up inactive, RGS16-Gao 97 and HSV replic up primary fold 1.3.
Screening CCc1ccc(-n2c(O)c(/C=N/N3CCCCC3c3cccnc3)c(=O)[nH]c2=O)cc1 (configuration not stated) returned PKD1 inh -6, HSV replic up inactive, RGS16-Gao 104, GALR2 ag -0.3, Insulin prom inh 37, Insulin prom inh cell count 84 and HSV replic up primary fold 0.97.
`COc1cc2c(cc1/C=C/[N+](=O)[O-])OCO2` gave PKD1 inh -2, RGS16-Gao 110, Insulin prom inh 8 and Insulin prom inh cell count 84.
Screening COP(=O)(OC)C(NC(C)=O)C(Cl)(Cl)Cl (configuration not stated) returned PKD1 inh -8, HSV replic up inactive, RGS16-Gao 104, Insulin prom inh -15, Insulin prom inh cell count 70 and HSV replic up primary fold 0.97.
For Cc1ccc(NC(=S)NCCc2cnc[nH]2)cc1C the results were PKD1 inh 3, HSV replic up inactive, RGS16-Gao 106 and HSV replic up primary fold 1.
`Cc1ccc2ccccc2c1NC(=O)CNC1CCCCC1` gave PKD1 inh -6, HSV replic up inactive, RGS16-Gao 101, GALR2 ag -1.0, Insulin prom inh 3, Insulin prom inh cell count 87 and HSV replic up primary fold 0.79.
For COC(=O)C1=Nc2ccccc2/C1=C\c1c(O)n(-c2cc(OC)ccc2OC)c(=O)[nH]c1=O the results were PKD1 inh 1, HSV replic up inactive, RGS16-Gao 110, GALR2 ag -1.8, Insulin prom inh 33, Insulin prom inh cell count 105 and HSV replic up primary fold 0.98.
`CC(=O)N1CCN(c2ccc([N+](=O)[O-])cc2C=C2C(=O)NC(=O)NC2=O)CC1` gave PKD1 inh -8, HSV replic up inactive, RGS16-Gao 104, GALR2 ag -0.3 and HSV replic up primary fold 0.94.
Screening COc1ccccc1N1CCN(Cc2ccc(Br)s2)CC1 returned PKD1 inh -4, HSV replic up inactive, RGS16-Gao 104, GALR2 ag -0.9, Insulin prom inh 38, Insulin prom inh cell count 99 and HSV replic up primary fold 1.
For CCN1CCN(C(=O)COc2ccc(S(=O)(=O)N(C)Cc3ccccc3)cc2)CC1 the results were PKD1 inh 7, HSV replic up inactive, RGS16-Gao 24*, GALR2 ag 1.7, Insulin prom inh -11, Insulin prom inh cell count 82 and HSV replic up primary fold 0.87.
COc1ccc(OCC(=O)N2CCN(C(C)C)CC2)cc1 was read as PKD1 inh -6, HSV replic up inactive, RGS16-Gao 100, GALR2 ag -1.4, Insulin prom inh 17, Insulin prom inh cell count 127 and HSV replic up primary fold 0.99.
`Cc1cc(OCC(=O)NC2CCS(=O)(=O)C2)c2c3c(c(=O)oc2c1)CCC3` (configuration not stated) gave PKD1 inh -12, HSV replic up inactive, RGS16-Gao 100, GALR2 ag -0.9, Insulin prom inh -6, Insulin prom inh cell count 112 and HSV replic up primary fold 0.93.
`CN1CCN(c2ccc(N)c(N3CCN(C)CC3)c2)CC1` gave PKD1 inh 2, HSV replic up inactive, RGS16-Gao 92, GALR2 ag -0.9, Insulin prom inh 0, Insulin prom inh cell count 131 and HSV replic up primary fold 0.92.
CC[n+]1c(/C=C/N(C)c2ccccc2)sc2ccc(Cl)cc21 was read as PKD1 inh 1, HSV replic up inactive, RGS16-Gao 98, GALR2 ag -1.8, Insulin prom inh 43, Insulin prom inh cell count 71 and HSV replic up primary fold 0.88.
Screening Cc1ccsc1C(=O)C1CCCN(Cc2ccc(-n3cccn3)cc2)C1 (configuration not stated) returned PKD1 inh -8, HSV replic up inactive, RGS16-Gao 107 and HSV replic up primary fold 1.1.
Screening NNc1n[nH]c(=S)n1N returned HSV replic up inactive, RGS16-Gao 144 and HSV replic up primary fold 0.91.
For O=C(CN1CCCCC1)c1ccc(OC(F)F)cc1 the results were PKD1 inh 10, HSV replic up inactive, RGS16-Gao 98, GALR2 ag 0.4 and HSV replic up primary fold 1.1.
O=C1NC(=O)N(Cc2ccco2)C(=O)/C1=C\c1cccn1CCOc1ccc(Cl)cc1 was read as PKD1 inh -2, RGS16-Gao 94 and GALR2 ag -0.6.
CSc1ncc(CN2CCCC(C(=O)c3cccc(Cl)c3)C2)cn1 (configuration not stated) was read as PKD1 inh 3, HSV replic up inactive, RGS16-Gao 73 and HSV replic up primary fold 0.95.
Cc1ccc(-c2nc3ccccc3c(=O)n2-n2cccc2)cc1 was read as PKD1 inh 1, HSV replic up inactive, RGS16-Gao 96, GALR2 ag -0.8, Insulin prom inh 4, Insulin prom inh cell count 83 and HSV replic up primary fold 0.86.
Nc1ccc(Cl)cc1C(=O)c1ccccc1 was read as PKD1 inh -2, HSV replic up inactive, RGS16-Gao 98, Insulin prom inh -80, Insulin prom inh cell count 28 and HSV replic up primary fold 0.97.
Screening OC12CCCCC1C(c1ccccc1)NCC2 (configuration not stated) returned PKD1 inh 1, HSV replic up inactive, RGS16-Gao 101, GALR2 ag -1.2, Insulin prom inh 36, Insulin prom inh cell count 58 and HSV replic up primary fold 1.
COCCN1C(=O)/C(=C/c2c(OC)cc(OC)cc2OC)C(=O)N(c2ccccc2)C1=O was read as HSV replic up inactive, RGS16-Gao 87 and HSV replic up primary fold 0.97.
`CC/C(=N\Nc1ccccc1)c1c(O)n(-c2ccccc2)c(=O)[nH]c1=O` gave HSV replic up inactive, RGS16-Gao 94 and HSV replic up primary fold 1.1.
For CN1CCC(O)(c2ccccc2)C(C(=O)c2ccccc2)C1 (configuration not stated) the results were PKD1 inh -6, HSV replic up inactive, RGS16-Gao 94, GALR2 ag -0.6, Insulin prom inh -30, Insulin prom inh cell count 130 and HSV replic up primary fold 0.98.
For CCC(=O)N1CC(=O)Nc2ccc(Cl)cc2C1c1ccc(F)cc1 (configuration not stated) the results were PKD1 inh -7, HSV replic up inactive, RGS16-Gao 105, GALR2 ag -1.8 and HSV replic up primary fold 0.83.
Screening CC1(C)C[C@H]2C=C(C=O)[C@]3(C=O)C[C@]3(C)[C@H]2C1 returned PKD1 inh -4, HSV replic up inactive, RGS16-Gao 110, GALR2 ag -2.2, Insulin prom inh -277, Insulin prom inh cell count 2 and HSV replic up primary fold 0.49.
O=c1[nH]c(=S)n(-c2ccccc2)c(O)c1/C=N/N1CCCCC1c1cccnc1 (configuration not stated) was read as HSV replic up inactive, RGS16-Gao 96 and HSV replic up primary fold 1.1.
O=c1[nH]c(=O)n(Cc2ccco2)c(O)c1C=NCc1ccc2c(c1)OCO2 was read as PKD1 inh -5, HSV replic up inactive, RGS16-Gao 95, GALR2 ag -0.9, Insulin prom inh 7, Insulin prom inh cell count 71 and HSV replic up primary fold 0.98.
Screening CCOC(=O)C(O)(c1ccc(NC(=O)NC2CCCCC2)cc1)C(F)(F)F (configuration not stated) returned PKD1 inh -2, HSV replic up inactive, RGS16-Gao 103, GALR2 ag -1.8, Insulin prom inh 46, Insulin prom inh cell count 104 and HSV replic up primary fold 1.1.
For O=P1(NCc2ccco2)COc2ccccc2OC1 the results were PKD1 inh -8, HSV replic up inactive, RGS16-Gao 100, GALR2 ag -0.9 and HSV replic up primary fold 0.77.
Screening FCCN(CCF)c1cccc(Cl)c1 returned HSV replic up inactive, RGS16-Gao 89 and HSV replic up primary fold 0.95.
For Cc1cccc(-n2c(O)c(/C=C3/C(c4ccccc4)=Nc4ccccc43)c(=O)[nH]c2=O)c1 the results were HSV replic up inactive, RGS16-Gao 95 and HSV replic up primary fold 0.85.
O=C(O)C1C2CC3CC(C2)CC1(n1ncc(N2CCC4(CC2)OCCO4)c(Cl)c1=O)C3 (configuration not stated) was read as HSV replic up inactive, RGS16-Gao 101 and HSV replic up primary fold 1.1.
For CC(NC(C)(C)C)C(=O)c1cccc(Cl)c1 (configuration not stated) the results were PKD1 inh 2, HSV replic up inactive, RGS16-Gao 25, GALR2 ag -2.0, Insulin prom inh -33, Insulin prom inh cell count 44 and HSV replic up primary fold 0.88&0.81.
CCN(CC)P(=S)(c1c(C)nc2ccccn12)c1c(C)nc2ccccn12 was read as PKD1 inh 2, HSV replic up inactive, RGS16-Gao 97 and HSV replic up primary fold 0.68.
Screening CC(C)Oc1cccc(NC(=O)c2cccn(Cc3ccc4c(c3)OC(F)(F)O4)c2=O)c1 returned PKD1 inh -5, HSV replic up inactive, RGS16-Gao 92, GALR2 ag -0.7 and HSV replic up primary fold 0.85.
CN(C)CC1CCCCC1=O (configuration not stated) was read as HSV replic up inactive, RGS16-Gao 92 and HSV replic up primary fold 0.96.
COc1c(C)cc(C(=O)C2CCCN(Cc3cccc(C)n3)C2)cc1C (configuration not stated) was read as PKD1 inh -6, HSV replic up inactive, RGS16-Gao 107, Insulin prom inh -30, Insulin prom inh cell count 47 and HSV replic up primary fold 0.94.
COc1ccc(CCN(C)Cc2ccncc2)cc1OC was read as PKD1 inh -5, HSV replic up inactive, RGS16-Gao 108, GALR2 ag -1.1, Insulin prom inh -7, Insulin prom inh cell count 141 and HSV replic up primary fold 0.87.
COCc1c(CN)cnc(C)c1N was read as PKD1 inh -5, HSV replic up inactive, RGS16-Gao 119, GALR2 ag -1.0, Insulin prom inh -15, Insulin prom inh cell count 110 and HSV replic up primary fold 0.94.
`C=C1C[C@]2(O)[C@@]3(C)CCC(=O)C(C)(C)C3=C(O)C(=O)[C@@]2(C)[C@@H]2C(=O)O[C@@](C)(C(=O)OC)C(=O)[C@@]12C` gave PKD1 inh 12, HSV replic up inactive, RGS16-Gao 101 and HSV replic up primary fold 0.73.
`Cc1cccc(-n2c(CN3C(=O)c4ccccc4C3=O)nc3ccccc3c2=O)n1` gave PKD1 inh -2, GALR2 ag -0.8, Insulin prom inh 21 and Insulin prom inh cell count 178.
OCCOCC#CCN1CCOCC1 was read as PKD1 inh -3, RGS16-Gao 103, GALR2 ag -0.5, Insulin prom inh 18 and Insulin prom inh cell count 66.
For COCCNP(=O)(c1ccccc1)c1nc2ccccc2s1 (configuration not stated) the results were PKD1 inh -8, RGS16-Gao 106, GALR2 ag 12*, Insulin prom inh 13 and Insulin prom inh cell count 78.
O=C1OC(c2ccc(Br)cc2)=N/C1=C\N1CC2CC(C1)c1cccc(=O)n1C2 (configuration not stated) was read as HSV replic up inactive, RGS16-Gao 100 and HSV replic up primary fold 0.88.
Screening CCOc1cc(/C=C2\C(=O)NC(=O)N(C)C2=O)cc([N+](=O)[O-])c1O returned HSV replic up inactive, RGS16-Gao 94 and HSV replic up primary fold 0.91.
`CCOC(=O)N(CC)c1ccc(C(O)(C(=O)OC)C(F)(F)F)cc1` (configuration not stated) gave PKD1 inh -11, HSV replic up inactive, RGS16-Gao 106, GALR2 ag -0.6, Insulin prom inh 56, Insulin prom inh cell count 140 and HSV replic up primary fold 0.93.
CC1CC(C)CN(CC(=O)c2ccc(OC(F)F)cc2)C1 (configuration not stated) was read as PKD1 inh -8, HSV replic up inactive, RGS16-Gao 102, GALR2 ag -0.1 and HSV replic up primary fold 1.1.
For Cc1ccc(-c2nn(Cc3ccccc3)cc2C=O)cc1 the results were PKD1 inh -1, HSV replic up inactive, RGS16-Gao 111, GALR2 ag -1.0, Insulin prom inh -7, Insulin prom inh cell count 78 and HSV replic up primary fold 0.96.
Screening O=c1[nH]c(O)c(C=NC2CCN(Cc3ccccc3)CC2)c(=O)[nH]1 returned PKD1 inh 9, HSV replic up inactive, GALR2 ag -4.4, Insulin prom inh -122, Insulin prom inh cell count 43 and HSV replic up primary fold 1.
